# Screens from PubChem BioAssay.
# Yeast UUG start = modulators of yeast start codon fidelity, primary screen, whole organism, S. cerevisiae, single point, plate reader. activity score, % at 18.7 µM. S. cerevisiae UUG-firefly luciferase reporter, luminescence/redox ratio. AID 602363, 2012. 350,000 compounds, 0.13% hits;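 active means replicate mean at a twofold rise or more, about +100% in these data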;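 further: firefly luciferase made from a UUG start codon reports start codon fidelity; reporter light over untreated wells divided by growth signal over untreated wells; some hits fall short of that in this replicate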
# Rce1 inh = yeast Rce1p protease inhibitors, primary screen, biochemical, fluorescence, cell-free homogeneous; calls only; AID 2563, 2010; yeast membranes, quenched prenylated peptide cleavage fluorescence; 290,000 compounds, 0.27% hits;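 active means fall in fluorescence gain of 50% or more versus controls, with final raw signal at or below 3038400; inconclusive means same 50% fall but final raw signal above 3038400; inactive means fall in fluorescence gain under 50%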;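 further: plate controls were neutral control wells for no effect and wells lacking membranes for full effect; tested at 10 µM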
# Target sequence (Q03530 whole entry, looked up): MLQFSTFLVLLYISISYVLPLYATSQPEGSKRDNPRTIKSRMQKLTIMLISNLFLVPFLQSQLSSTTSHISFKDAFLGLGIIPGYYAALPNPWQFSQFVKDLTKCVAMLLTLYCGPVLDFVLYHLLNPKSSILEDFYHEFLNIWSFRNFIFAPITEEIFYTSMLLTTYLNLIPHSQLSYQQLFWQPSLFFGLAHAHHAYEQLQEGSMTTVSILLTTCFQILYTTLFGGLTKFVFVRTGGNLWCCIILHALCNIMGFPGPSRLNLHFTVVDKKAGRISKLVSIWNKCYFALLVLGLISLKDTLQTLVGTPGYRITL
# CSC inhib = cancer stem cell viability inhibitors, primary screen, luminescence | 300,000 compounds, 1.1% hits | AID 2717, 2010 | cancer stem cell-like cells viability | inhibition, % at 7.5 µM;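 active means mean at 75% or more and at least half the replicates too; inconclusive means mean and replicates disagree; tested in HMLE shEcad cells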;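 further: 0% = median of negative and 100% = median of positive control wells; the first replicate is given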
# Env fusion inh = inhibitors of HIV-1 Env-driven cell-cell fusion, primary screen, HeLa-JRFL effector, CEM21 target cells, luciferase; inhibition, % at 12.3 µM; 360,000 compounds, 1.1% hits;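 active means mean replicate inhibition score of at least 50 and every replicate individually at or above 50; inconclusive means only one of the two criteria met; inactive means mean below 50 and not all replicates reaching 50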;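 further: 0% = plate neutral controls and 100% = maraviroc near 300 nM; one replicate is shown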
# eIF4H inh = human eIF4H binding inhibitors, primary screen, translation initiation inhibitor project, biochemical, uHTS, fluorescence polarization; 290,000 compounds, 0.94% hits; inhibition, % at 35 µM; AID 2012, 2009; eIF4H fluorescence polarization binding assay; Eukaryotic translation initiation factor 4H (Homo sapiens), Q15056;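 active means 50% or more with normal probe brightness, or confirmed in later tests; inconclusive means above 50% with abnormal brightness, or retests that disagree; inactive means below 50% or failed in later tests; about a fifth of its hits are not listed in these tables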;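 further: calls also rest on retests at 20 µM and on dose response follow-up; 0% = protein and probe with vehicle and 100% = probe without protein; strong numbers were not always called active; many hits fall short of the cut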
# MT1-MMP act inh = blockers of MT1-MMP proenzyme processing, primary screen, HT1080 RFP-PRO-GFP cells, GFP/RFP fluorescence | Matrix metalloproteinase-14 (Homo sapiens), P50281 | GFP/RFP ratio fluorescence, overnight; percent of plate control window, DMSO zero | GFP/RFP ratio change, % at 20 µM | 360,000 compounds, 0.061% hits;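 active means GFP/RFP ratio change of at least 30% with cell ATP level not reduced by more than half and red fluorescence within 50% of control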; further: strong numbers were not always called active
#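 Assay system: HT1080 RFP-PRO-GFP cells | Dosing: 20 µM single dose, 1% DMSO | Incubation: Cells overnight before dosing, compound overnight, 37 °C, 5% CO2 | Evaluation: GFP/RFP fluorescence ratio | Control set: DMSO-only wells and HT1080 RFP-L50D-GFP cell wells as references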
# PABP polyA inh = PABP poly(A) RNA binding inhibitors, primary screen, biochemical, fluorescence polarization, uHTS | inhibition, % at 35 µM | Polyadenylate-binding protein 1 (Homo sapiens), P11940 | 290,000 compounds, 1% hits | AID 2014, 2009;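 active means 50% or more with normal probe brightness, or confirmed in later tests; inconclusive means above 50% with abnormal brightness, or retests that disagree; inactive means below 50% or failed in later tests; about a fifth of its hits are not listed in these tables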;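 further: calls also rest on retests at 20 µM and on dose response follow-up; controls were probe without protein and protein plus probe with vehicle; some compounds called inactive have numbers as strong as hits; many hits fall short of the cut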
# Target sequence (P11940 whole entry, looked up): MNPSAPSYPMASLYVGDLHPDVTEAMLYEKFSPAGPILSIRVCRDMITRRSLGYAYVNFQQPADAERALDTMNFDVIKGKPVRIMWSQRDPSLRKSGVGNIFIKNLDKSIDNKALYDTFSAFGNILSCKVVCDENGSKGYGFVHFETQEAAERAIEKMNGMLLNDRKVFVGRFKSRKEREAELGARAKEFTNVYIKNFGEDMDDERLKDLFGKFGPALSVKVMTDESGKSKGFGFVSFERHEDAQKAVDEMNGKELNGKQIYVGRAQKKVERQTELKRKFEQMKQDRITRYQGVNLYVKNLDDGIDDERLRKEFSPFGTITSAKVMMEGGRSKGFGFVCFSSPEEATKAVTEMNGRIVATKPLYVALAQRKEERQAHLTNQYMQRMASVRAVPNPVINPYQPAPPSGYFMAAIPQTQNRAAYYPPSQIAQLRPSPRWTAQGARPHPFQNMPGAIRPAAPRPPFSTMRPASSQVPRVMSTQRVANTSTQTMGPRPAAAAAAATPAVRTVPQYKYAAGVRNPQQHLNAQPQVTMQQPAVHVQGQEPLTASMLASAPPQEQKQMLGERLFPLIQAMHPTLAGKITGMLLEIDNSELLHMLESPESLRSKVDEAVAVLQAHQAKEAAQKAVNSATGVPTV
# eIF4H inh retest = second read-out of eIF4H inh, no call of its own (marks repeat the call); inhibition, %; compound at 20 µM; confirmation average;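 mean of two retest wells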
# PABP polyA inh retest = recorded beside PABP polyA inh, whose call it bears; inhibition, %; compound at 20 µM; confirmation repeats;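 mean of two retest wells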
# MT1-MMP act inh RFP = further read-out of MT1-MMP act inh, marked with its call; RFP signal change, %; measured here: RFP expression control read;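 0 = vehicle wells; hits needed this value within 50% of zero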
# Starred values were filed as active, the others as inactive; i = inactive; ? = inconclusive; . = no result given. Not all compounds are listed; count on the stated rates, not on these rows.
SMILES,Yeast UUG start,Rce1 inh,CSC inhib,Env fusion inh,eIF4H inh,MT1-MMP act inh,MT1-MMP act inh RFP,PABP polyA inh,others
Cc1ccc(CN2C(=O)C3CCCN3c3ccc(C#N)cc32)cc1 (configuration not stated),.,i,-12.1,.,-0.9,.,.,-12.6,
COc1ccc(C)c(NC(=O)NCCc2cnc[nH]2)c1,-3.0,i,-13.3,-278.4,-4.1,-2.9,-2.4,1.5,
O=C(NCC1CCN(Cc2cccc(Cl)c2)CC1)C1CCCN(c2ncnc3c2nc2n3CCCCC2)C1 (configuration not stated),-16.8,i,22.8,13.5,-3.5,1.6,-7.3,-6.8,
O=c1nc(N2CCCC2)nc(Nc2ccccc2)[nH]1,-13.1,i,2.4,-17.0,-7.6,-0.1,2.9,0.9,
CCOC(=O)C1=C(C)NC2=C(C(=O)C(C(=O)OCC)C(c3ccccc3OC)C2)C1c1ccccn1 (configuration not stated),0.6,i,12.3,.,-3.0,-0.6,-0.7,-14.6,
CCC(c1ccccc1)c1nnc(NC(=O)c2ccco2)s1 (configuration not stated),-15.3,i,-9.9,-2.7,-6.1,3.2,-3.1,-6.6,
Cc1ccc(NC(=O)CCC(=O)NNC(=O)NC2CCCCC2)c(C)c1,-12.7,i,-14.1,-1.6,-2.4,1.5,0.6,-1.6,
COc1ccc(CCNC(=O)COC(=O)/C=C/c2cc(OC)c(OC)c(OC)c2)cc1OC,-14.3,i,-21.3,8.4,6.2,-2.6,1.1,-10.0,
Cc1ccccc1OCC(=O)NNC(=O)C1CCCCC1C(=O)O (configuration not stated),-9.3,i,8.2,3.8,9.5,-0.5,8.2,-0.1,
Cc1ccc2cccc(OCC(=O)NCCC3=CCCCC3)c2n1,-11.2,.,-8.0,.,.,-5.3,-1.2,.,
Cc1ccc(CSc2nnc([C@@H]3CCCN3C(=O)OC(C)(C)C)o2)cc1,.,i,12.7,5.6,0.6,-0.2,3.1,-1.2,
O=C1NC[C@H](Cc2ccccc2)N(CC2CCN(CCCCc3ccccc3)CC2)C1=O,-15.1,.,.,-26.3,.,4.1,2.3,.,
CN(Cc1cn(C)nc1-c1ccccc1F)C1CCOC1 (configuration not stated),.,i,-6.8,10.0,2.2,-1.4,2.8,-10.0,
CCC(=O)Nn1cnc2c(c1=O)C1(CCCCC1)Cc1ccccc1-2,-11.4,i,-9.5,5.6,-5.2,-0.8,-1.7,-6.1,
O=C(COC(=O)c1ccc([N+](=O)[O-])s1)Nc1cccc(S(=O)(=O)NC2=NCCCCC2)c1,.,i,3.3,2.4,-2.4,0.2,1.7,3.4,

# An excerpt from above in order of length of the SMILES, descending.
SMILES,Yeast UUG start,Rce1 inh,CSC inhib,Env fusion inh,eIF4H inh,MT1-MMP act inh,MT1-MMP act inh RFP,PABP polyA inh,others
CCOC(=O)C1=C(C)NC2=C(C(=O)C(C(=O)OCC)C(c3ccccc3OC)C2)C1c1ccccn1 (configuration not stated),0.6,i,12.3,.,-3.0,-0.6,-0.7,-14.6,
Cc1ccc(CN2C(=O)C3CCCN3c3ccc(C#N)cc32)cc1 (configuration not stated),.,i,-12.1,.,-0.9,.,.,-12.6,
COc1ccc(C)c(NC(=O)NCCc2cnc[nH]2)c1,-3.0,i,-13.3,-278.4,-4.1,-2.9,-2.4,1.5,

# Reprinted from the entries so far (2 entries):
SMILES,Yeast UUG start,Rce1 inh,CSC inhib,Env fusion inh,eIF4H inh,MT1-MMP act inh,MT1-MMP act inh RFP,PABP polyA inh,others
Cc1ccccc1OCC(=O)NNC(=O)C1CCCCC1C(=O)O (configuration not stated),-9.3,i,8.2,3.8,9.5,-0.5,8.2,-0.1,
Cc1ccc2cccc(OCC(=O)NCCC3=CCCCC3)c2n1,-11.2,.,-8.0,.,.,-5.3,-1.2,.,

# The listing continues.
SMILES,Yeast UUG start,Rce1 inh,CSC inhib,Env fusion inh,eIF4H inh,MT1-MMP act inh,MT1-MMP act inh RFP,PABP polyA inh,others
O=c1cnn(-c2ccc(Cl)cc2Cl)c(-c2ccccc2)c1,-20.5,i,13.9,-20.8,-7.4,-2.1,-12.7,-3.4,
O=[N+]([O-])c1ccc(NC(=S)NCCc2ccccc2)cc1,.,i,52.6,35.2,-2.0,0.3,-5.6,12.6,
COc1cccc(NC(=O)CSc2ccc3nnc(-c4ccccn4)n3n2)c1,-23.2,i,-5.6,2.9,-15.8,-3.0,-1.4,2.5,
O=C(Nc1ccc(-c2nc3ccccc3o2)cc1)c1ccc(N2C(=O)C3C4C=CC(C4)C3C2=O)cc1 (configuration not stated),1.1,i,-7.3,?,-4.9,2.3,-11.2,-26.2,
COc1ccc2c(c1)c(/C=N/Nc1ccc(C(=O)O)cc1)c(C)n2C,-42.4,.,-3.3,1.9,38.2,-17.6,-0.8,36.2,
COc1ccc(/C=N/OC(=O)Nc2ccccc2)cc1[N+](=O)[O-],.,i,-16.2,-6.0,-0.7,2.1,2.3,3.4,
CCC(C)(C)NC(=O)CN(C(=O)CCC(=O)Nc1nccs1)c1cccc(C)c1,-13.3,i,-11.9,-31.0,5.3,-0.4,-0.1,7.5,
Cc1cc(-n2c(C)cc(C(=O)COc3ccc4ccc(=O)oc4c3)c2C)no1,.,i,10.2,-22.7,74.6,3.4,2.2,-11.3,eIF4H inh retest=2.9;PABP polyA inh retest=7.2
CC(C)CC(=O)N1CCN(C(=O)c2ccco2)CC1,.,i,-8.8,12.6,-2.7,1.3,6.7,-10.5,
N#Cc1cn(CCOC(=O)c2cccc(C(F)(F)F)c2)c(=O)[nH]c1=O,-14.4,i,-7.7,12.8,-11.7,3.9,-3.9,-1.2,
COc1ccc(/C=N\NC(=O)C2=NNC(=O)C2C)cc1 (configuration not stated),-22.9,i,4.2,-34.6,-2.3,0.4,3.3,-3.7,
COc1cccc(/C=N/NC(=O)C(=O)NCc2cccnc2)c1OC,-21.9,i,2.8,0.9,2.6,0.9,1.9,4.4,
OCC1OC(n2nc3ccccc3n2)C(O)C(O)C1O (configuration not stated),-10.3,i,.,.,3.5,-2.0,0.3,0.5,
CCc1cc2ccc(C)cc2nc1SCC(=O)c1ccc(NC(C)=O)cc1,-20.0,i,87.4*,.,4.9,-20.0,-5.3,5.7,
COc1ccc(C=C2SC(=S)N(CCCC(=O)Nc3ccc(C(=O)O)c(O)c3)C2=O)cc1OC,-20.1,.,.,-2.2,.,-8.7,0.2,.,
COc1ccc(C(=O)C2CCCN(Cc3cccn3-c3cccnc3)C2)cc1OC (configuration not stated),.,i,-11.8,0.7,-6.1,1.0,3.6,3.7,
Cc1cccc2c1nc(-c1ccccc1)n1cnnc21,-17.9,.,-3.0,-377.4,-0.8,1.1,2.5,-5.4,
CCCC(=O)N1CCN(c2ccc(NC(=O)c3ccc(OCC)c([N+](=O)[O-])c3)cc2)CC1,-12.6,i,8.3,.,-11.0,2.5,2.1,4.2,
CCOC(=O)c1c(NC(=O)CSC(=S)N2CCOCC2)sc(C)c1C,-4.5,i,26.6,1.4,-9.2,-0.4,-2.4,7.4,
Cc1nc2ccc(C(=O)Nc3ccc4nc[nH]c4c3)cc2[nH]1,-11.6,i,11.7,-4.3,-9.3,2.4,-0.7,-0.9,
COc1ccc(N2C(=O)CSC2c2ccccc2)cc1 (configuration not stated),-3.1,i,-6.7,-2.7,-5.2,-0.8,-1.1,0.6,
O=C(Nc1ccc2nc3n(c(=O)c2c1)CCCC3)c1cccc([N+](=O)[O-])c1,-18.5,i,-6.2,-55.0,-13.5,0.8,-4.4,-5.8,
Cc1ccc(C(=O)Nn2cnnc2)cc1S(=O)(=O)N1CCOCC1,-18.6,i,-3.8,-1.7,-14.3,6.6,8.1,-0.2,
CCCC1(C(=O)OCC)NC(c2ccc(OC)cc2OC)C2C(=O)N(c3ccccc3)C(=O)C21 (configuration not stated),0.4,i,1.7,.,6.3,1.2,-0.2,64.5,eIF4H inh retest=-7.1;PABP polyA inh retest=0.2
CCCN1C(=O)/C(=C\C=C2/C=CN(CC)c3ccccc32)SC1=S,-17.2,i,4.5,.,?,42.8,89.0,2.5,
O=C(N/C(=C\c1ccc([N+](=O)[O-])cc1)C(=O)N1CCOCC1)c1ccccc1,.,.,-4.1,7.0,8.6,-3.1,1.7,8.7,
CCN(C(=O)CSc1nnc(Nc2ccccc2C)s1)C1CCS(=O)(=O)C1 (configuration not stated),-14.4,i,-12.5,13.6,88.6,0.7,4.0,-16.4,eIF4H inh retest=-9.9;PABP polyA inh retest=10.1
COc1ccc(-n2nnc3c(SCC(=O)c4ccccc4)ncnc32)cc1,.,i,-8.4,.,-4.3,4.0,2.3,-4.1,
O=C(Nc1cccc(Cl)c1)Nc1ccccc1NS(=O)(=O)c1cccs1,.,i,27.4,15.5,9.4,4.7,-4.7,-0.6,
O=c1c(-c2nc3ccccc3s2)cccn1Cc1ccccc1,-12.7,i,5.7,-111.4,-9.0,5.3,-3.6,-2.2,
CNC(=O)/C(C#N)=C/c1cc(C)n(-c2ccc(N3CCOCC3)cc2)c1C,.,i,-21.9,-0.5,2.0,4.6,-8.0,-8.1,
CCN(C(=O)C1CCCN1S(=O)(=O)c1ccc2c(c1)n(C)c(=O)c(=O)n2C)c1ccccc1 (configuration not stated),2.3,i,.,10.0,-3.1,0.8,8.0,-5.1,
CCOC(=O)CSc1nnc(Cc2ccccc2)n1-c1cccc(Cl)c1,-15.8,i,.,.,-9.4,-1.2,1.8,4.3,
O=C(CC12CC3CC(CC(C3)C1)C2)Nc1cccc2ncccc12,2.9,i,-9.6,-18.1,-2.1,2.7,1.3,3.6,
CC(=O)c1c(C)n(-c2ccccc2)c2ccc(OCC(N)=O)cc12,10.0,i,-0.4,-8.0,-15.4,-3.4,-2.4,1.9,
CCNC(=S)Nc1ccc2ncoc2c1,-14.9,i,-5.9,3.5,-3.3,3.5,2.1,2.7,
CCOc1ccc(NC(=O)C2CCC(CNc3c(N4CCC(C)CC4)c(=O)c3=O)CC2)cc1 (configuration not stated),-1.6,i,-3.5,22.9,-1.4,3.5,-1.1,6.1,
O=C(NCCN1CCN(C(=O)c2ccc([N+](=O)[O-])cc2)CC1)C(=O)Nc1ccc(F)cc1,-2.5,.,-6.3,-9.0,-8.4,0.6,-1.4,-2.5,
COCCOC(=O)c1[nH]c2c(c1C)C(=O)CC(c1ccccc1)C2 (configuration not stated),-7.7,i,58.9,.,-4.6,7.3,-7.4,-11.5,
COc1cc(OC)cc(-c2nc3nc(C)c(CCC(=O)NCC(OC)OC)c(C)n3n2)c1,.,i,-4.4,9.9,3.8,4.0,3.8,-11.3,
COC(=O)c1cnc(Nc2nc(C(N)Cc3ccc(OC)cc3)cs2)nc1C(F)(F)F (configuration not stated),-10.1,.,.,5.9,.,3.1,-2.7,.,
Brc1ccc(CSc2ccc(-c3ccco3)nn2)cc1,.,i,.,-23.8,61.0,1.0,-2.3,-6.1,eIF4H inh retest=-1.3;PABP polyA inh retest=5.9
CC(=O)c1ccc(OCc2cc([N+](=O)[O-])cc3c2OCOC3)cc1,.,i,17.1,-6.1,8.5,3.5,1.8,-4.0,
